VDR inh = Inhibitors of the vitamin D receptor (VDR): qHTS; Potency, µM, for inactives: max response, negative = inhibition, actives largely listed as inhibitors; VDR-SRC2-3 peptide fluorescence polarization, 2 h; AID 504847, 2011; 0.93% of 400,000 active; active = well fitted inhibition curve with a large enough effect; inconclusive = small, poorly fitted or top-dose-only effect, or another doubt; inactive = no such curve, though single readings can be large or run the other way; also: series mostly up to about 120 µM
Target sequence (P11473 whole entry, looked up): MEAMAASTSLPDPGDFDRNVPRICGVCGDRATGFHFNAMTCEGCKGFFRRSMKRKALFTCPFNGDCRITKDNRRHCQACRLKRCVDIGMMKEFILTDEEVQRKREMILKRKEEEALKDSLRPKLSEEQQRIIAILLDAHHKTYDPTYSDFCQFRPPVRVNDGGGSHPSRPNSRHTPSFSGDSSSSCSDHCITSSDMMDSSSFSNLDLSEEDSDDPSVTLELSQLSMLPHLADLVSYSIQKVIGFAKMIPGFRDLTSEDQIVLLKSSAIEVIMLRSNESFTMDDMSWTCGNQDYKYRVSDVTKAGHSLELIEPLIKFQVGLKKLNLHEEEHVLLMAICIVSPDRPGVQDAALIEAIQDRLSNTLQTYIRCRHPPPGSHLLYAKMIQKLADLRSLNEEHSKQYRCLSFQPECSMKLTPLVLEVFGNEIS
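After 23 nl compound addition and a short centrifugation, plates sat for 2 hours at ambient temperature; polarization of fluorescence then indicated loss of VDR binding to peptide SRC2-3.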
* = called active by the depositor; ? = inconclusive. % is scaled to controls: 0 for no effect and ±100 for the full control effect; potency is read from the fitted curve at half-maximal effect.

VDR inh | molecule
-1.4% | Cc1ccc(CNC(=O)CSc2nc3ccccc3nc2Cc2ccc(C)cc2)cc1
-5.2% | Cc1cccc(S(=O)(=O)Nc2ccc(-c3cn4ccccc4n3)cc2)c1
6.7% | Clc1ccccc1N1CCN(Cc2nnc(-c3ccccc3)o2)CC1
-4.8% | C/C(=N/O)c1cccc(N2Cc3ccccc3C2)c1
0.0% | CCC(Sc1nc2ccccc2s1)C(=O)Nc1nnc(C)s1 (configuration not stated)
6.8% | O=C(c1cc2nc(-c3ccco3)cc(C(F)(F)F)n2n1)N1CCc2ccccc2C1
-2.9% | Cc1cc(OCc2cc(C(=O)NC3CCC3)no2)cc(C)c1Cl
-25.3% | Cc1cc(=O)oc2cc(OCC(=O)N/N=C/c3ccccc3[N+](=O)[O-])ccc12
-94.7% | CCOC(=O)c1c(N2C(=O)C=CC2=O)sc(C)c1C
-3.4% | CCN(CC(=O)NCc1cccs1)C(=O)c1cc(=O)[nH]c2ccccc12
? | O=C(Nc1ccccc1)c1ccc(-c2ccc([N+](=O)[O-])cc2)o1
? | Cc1c(CC(=O)N[C@H](C(=O)O)C(C)C)c(=O)oc2cc3c(cc12)CCC(C)(C)O3
? | COC(=O)/C=c1/sc2nc3ccccc3n2c1=O
4.1% | CCOc1ccc(CN2C(=O)c3ccccc3C2=O)cc1C(=O)N1CCC(C(N)=O)CC1
-16.2% | COc1ccc(-c2coc3cc(O[C@@H]4O[C@H](CO)[C@@H](O)[C@H](O)[C@H]4O)ccc3c2=O)cc1
-12.9% | COc1cccc(Oc2ncnc(N)c2[N+](=O)[O-])c1
-9.2% | Cc1ccc2oc(=O)n(CCNC(=O)Nc3ccccc3Cl)c2c1
-14.1% | COC(=O)CS(=O)(=O)c1nc2ccccc2nc1N1CCCCC1
-1.0% | O=S(=O)(NCc1ccccc1)c1ccc(Cl)c(S(=O)(=O)NCc2ccccc2)c1
-5.0% | Cc1ccc(OCC(=O)N2CCc3ccccc3C2)c(C)c1
1.2% | O=C1Nc2ccccc2C1Cc1ccccn1 (configuration not stated)
-6.7% | COc1ccc2c(c1)CC(C(=O)NCCCN1CCN(c3cccc(Cl)c3)CC1)CO2 (configuration not stated)
7.5% | CNC(=O)COC(=O)c1nc(-n2nc(C)cc2C)ccc1Cl
8.5% | CC(=O)N1CC2(c3ccccc3)CN(C(C)=O)CC(c3ccccc3)(C1)C2=O
0.5% | CCOC(=O)c1cc(-c2ccc(OC)cc2F)nc2c1c(C)nn2CCC#N
-5.0% | COc1ccc(OC)c(N(CC(=O)NCc2cccnc2)S(C)(=O)=O)c1
20.5% | CN(C)c1ccc(CNC(=O)C2COc3ccccc3C2)cc1 (configuration not stated)
-10.5% | CCOc1ccccc1NC(=O)Cn1ncc2ccc([N+](=O)[O-])cc21
-21.7% | CCn1cc(C(=O)NCC(OC)OC)c(=O)c2cc(S(=O)(=O)N3CCOCC3)ccc21
2.6% | COC(=O)c1c(S(=O)(=O)NCc2ccccc2)sc(C(=O)O)c1C
9.0% | Cc1ccc(C(C(=O)NCc2ccccc2)N(C(=O)c2ccccn2)c2ccccc2)o1 (configuration not stated)
0.0% | Cc1ccccc1C(=O)Nc1sc2c(c1C(=O)N1CCCCC1)CCC(C(C)(C)C)C2 (configuration not stated)
10.9% | Cc1c(CC(=O)O)c(=O)oc2c(C)c(OCc3ccccc3)ccc12
1.2% | CC(C)=NNC(=O)CN1C(=O)NC2NC(=O)NC21 (configuration not stated)
8.1% | Cc1ccc(C(=O)NC(=S)Nc2ccc(CN3CCCCC3)cc2)c(C)c1
-7.9% | Cc1cc(C(F)(F)F)n2nc(C)c(-c3ccc(Cl)cc3)c2n1
-10.2% | Cc1ccc(CN2CCC(N3CCC(C(=O)NCC4CCCO4)CC3)CC2)o1 (configuration not stated)
-2.8% | CCCCn1c(N)c(N(CC)C(=O)C2=NN(c3ccccc3)C(=O)CC2)c(=O)[nH]c1=O
2.1% | O=C(O)CC(NS(=O)(=O)c1ccc(Br)cc1)c1ccco1 (configuration not stated)
2.6% | Cc1cccc(NC(=O)C2CCCN(S(=O)(=O)c3ccc4c(c3)CCCC(=O)N4)C2)c1 (configuration not stated)
-6.9% | O=C(CN1C(=O)NC2(CCCC2)C1=O)Nc1cc(C(F)(F)F)ccc1N1CCOCC1
-1.1% | COc1ccc(C2N=C(N)N=C(N)N2c2ccc(C)cc2)cc1 (configuration not stated)
-0.3% | CCOC(=O)CCSCC(=O)Nc1cc(C)on1
-1.0% | O=C(CCc1[nH]c2ccccc2c1Sc1ccccc1)NCCO
-7.8% | O=c1c2ccccc2nc(SCc2ccccc2F)n1C1CCCC1
12.6µM* | CCOC(=O)c1nn(-c2ccc(C)cc2)c(=O)c2c(N)scc12
9.4% | O=C(O)CCCC(=O)Nc1ccc(Sc2ccc([N+](=O)[O-])cc2)cc1
-15.6% | C=CCn1c(Cc2ccccc2)n[nH]c1=S
-5.2% | CCCCn1c(N)c(N(CC(C)C)C(=O)C2CCN(S(=O)(=O)c3ccc(C)cc3)CC2)c(=O)[nH]c1=O
-20.2% | O=C(CCNC(=O)c1ccccc1Cl)NCc1cccnc1
-8.0% | CN(C(=O)c1cccc(NC(=O)Cc2ccc(NC(=O)C3CCN(C(=O)c4ccccc4)CC3)cc2)c1)C1CC1
6.0% | CCOC(=O)C1=C(CS(=O)(=O)c2ccccc2)NC(=O)NC1c1ccccc1OC (configuration not stated)
-13.7% | CC(=O)N1CCN(C2c3cccc4cccc(c34)C2NS(=O)(=O)c2ccccc2)CC1 (configuration not stated)
-16.1% | CCNC(=S)NCc1ccco1
5.0% | O=C(CSC1=Nc2ccccc2N=C(c2ccc(F)cc2)C1)Nc1ccc(Cl)cc1
-16.1% | COc1ccc(OC)c(NC(=O)c2sc3nc4c(cc3c2N)CCCCCC4)c1
-20.5% | CC(C)CCN1CCC(C)(NC(=O)c2ccccc2)C1=O (configuration not stated)
19.7% | Cc1cccnc1CCNC(=O)CC1C(=O)NCCN1CC1CCCCC1 (configuration not stated)
-24.4% | O=C(Nc1ccc2nc3ccccc3nc2c1)c1ccc(Br)cc1
? | O=C(O)c1ccc(S(=O)(=O)N(CCc2ccccc2)Cc2ccc(Cl)cc2)cc1

(further entries)
VDR inh | molecule
-2.6% | Cc1cc(C)c(NC(=O)CSc2nc(-c3ccc(F)cc3)nc3c2Cc2c(CO)cnc(C)c2O3)c(C)c1
-7.4% | CC(=O)N1CCc2cc(S(=O)(=O)CCC(=O)Nc3ccccc3F)ccc21
15.7% | O=C(NCc1ccccn1)C1CC(c2ccccc2Cl)=NO1 (configuration not stated)
-17.0% | COc1ccc(NC(=O)c2ccc3ccccc3c2OC)cc1
? | Cc1cccc(N2CCN(C(=O)NCc3ccc(F)cc3)CC2)c1C
15.0% | CN(NC(=O)NN)c1ncc(C(F)(F)F)cc1Cl
12.8% | COc1ccc(NC(=O)CCN2CCCCC2)cc1
0.1% | Cc1ccc(CNc2ncnc(N)c2[N+](=O)[O-])cc1
-7.1% | O=C(CN(C1CC1)S(=O)(=O)c1ccc(S(=O)(=O)NC2CCCCC2)cc1)Nc1ccccc1
-13.8% | O=C(NC(=S)NCc1ccc(Cl)cc1Cl)c1ccco1
-19.4% | CCC1CCCCN1CCCNC(=O)c1ccc2c(c1)N(Cc1c(F)cccc1Cl)C(=O)CS2 (configuration not stated)
-19.3% | Cc1cc(Cl)ccc1OC(C)C(=O)Nc1ccc([N+](=O)[O-])cn1 (configuration not stated)
20.7% | COc1ccccc1N1C(=O)S/C(=C\c2cc(C)n(C)c2C)C1=O
-15.3% | Oc1ccc(-c2nc3ccccc3nc2-c2ccc(O)cc2O)c(O)c1
6.8% | O=C(NCSc1ccnc(SCNC(=O)c2ccc(F)cc2)n1)c1ccc(F)cc1
-10.8% | O=C(CSCc1ccc(Cl)cc1)NCCSCc1ccco1
-7.3% | O=C(COc1cccc(NC(=O)c2ccco2)c1)c1ccccc1
-21.9% | COC(=O)c1c(C)oc(C)c1S(=O)(=O)N1CCCC1
2.1% | COc1cc(NC(=O)c2sc3nc4n(c(=O)c3c2C)CCCCC4)cc(OC)c1OC
? | N#C/C(=C\c1ccccc1)C(=O)NCc1ccc(F)cc1
-3.2% | COc1cc(NC(=O)Nc2cccc(C(C)=O)c2)cc(OC)c1OC
5.1% | CCOc1ccccc1CNC(=O)c1cnn(-c2ccc(C)cc2)c1-n1cccc1
10.2% | CC(C)CN(CC(C)C)S(=O)(=O)c1ccc(C(=O)Nc2sc3c(c2C(N)=O)CCN(C(C)C)C3)cc1
10.5% | CCOc1ccccc1CNC(=O)c1ccc2nc(Cc3ccc(OC)cc3)oc2c1
6.7% | CC1CCC2(CC1)NC(=O)N(CC(=O)Nc1ccc(C(N)=O)cc1)C2=O (configuration not stated)
-0.5% | CCOc1ccc(CCNC(=O)c2nnn(CC(=O)Nc3ccc(OC)c(OC)c3)c2N)cc1OCC
-0.2% | CCOc1ccc(Nc2nc(C)c(NC(=O)c3cccc(OC)c3)c(Nc3ccc(OCC)cc3)n2)cc1
-3.6% | COc1ccc(C)cc1NC(=O)Nc1cc(C(=O)NCc2ccc(C)cc2)ccc1N1CCCC1
-15.6% | NNC(=O)c1cc(NS(=O)(=O)c2cccs2)cc(NS(=O)(=O)c2cccs2)c1
-2.8% | CCc1nc2ccccc2c(C(=O)OC2CCCCC2=O)c1C (configuration not stated)
16.7% | CC1=C(c2ccccc2)C(=S)NC(C)(C)C1
4.6% | COc1ccccc1N1C(=O)CC(Sc2ncccc2C(=O)O)C1=O (configuration not stated)
13.5% | Cc1ccc(NC(=O)C(c2ccccc2)N2Cc3ccccc3C2=O)cc1Cl (configuration not stated)
12.5% | CC(CC(=O)C1C(C)C=CCC1(C)C)NNC(N)=O (configuration not stated)
-8.2% | CC(C)OC(=O)CSc1nc(N)c(C#N)c(-c2cccs2)c1C#N
7.2% | CS(=O)(=O)N1CCCC(C(=O)Nc2ccccc2)C1 (configuration not stated)
21.2% | COc1ccc(NC(=O)c2cc(S(=O)(=O)N3CCCCCC3)cn2C)cc1Cl
12.5% | Cc1ccsc1C(=O)OCC(=O)NCc1ccc(Cl)cc1
-3.8% | O=C(NNS(=O)(=O)c1cccc(Cl)c1Cl)c1cccc(S(=O)(=O)N2CCOCC2)c1
-19.6% | O=C(c1ccc(Cl)c(Cl)c1)N1CCC(=O)N(C(COCc2ccccc2)Cc2ccccc2)CC1 (configuration not stated)
-23.0% | O=C(CSc1nnnn1-c1ccccc1)Nc1ccc(N2CCOCC2)cc1
? | CCCCN(CCCC)S(=O)(=O)c1ccc(N2CCCC2=O)c([N+](=O)[O-])c1
10.0% | CC1CC(C)CN(S(=O)(=O)c2ccc3c(c2)oc(=O)n3CC(=O)NCCCOC(C)C)C1 (configuration not stated)
-24.3% | CCCCn1c(N)c(N(CC(C)C)C(=O)C2CC(=O)N(c3ccc4c(c3)OCCO4)C2)c(=O)[nH]c1=O (configuration not stated)
-1.7% | NS(=O)(=O)c1ccc(CCNC(=O)CN2CCN(c3ccc(F)cc3)CC2)cc1
0.2% | COc1ccc(Nc2nnc(SCC(=O)NC(=O)Nc3ccc4c(c3)OCCO4)s2)cc1
-6.0% | Cc1ccc(C(=O)NCc2cccnc2)o1
8.6% | COc1ccc(NC(=O)C2CCN(c3nc(-c4ccc(OC)cc4)no3)CC2)cc1
1.6% | CCOc1nc(NC(=O)NS(=O)(=O)Oc2cccc(F)c2)nc(-c2ccccc2)n1
-8.8% | Cc1cccc(N(C(=O)c2nsc(Cl)c2Cl)C(C(=O)NC2CCCC2)c2ccc(O)cc2)c1 (configuration not stated)
-8.9% | CCn1c(=N)c(C(=O)NCc2ccccc2)cc2c(=O)n3cccc(C)c3nc21
-12.5% | CCCC(C(=O)NC1CCCC1)N(CCCN1CCOCC1)C(=O)c1snc(C(N)=O)c1N (configuration not stated)
-0.7% | COCCNC(=O)c1c(N)n(/N=C/c2ccc(F)cc2)c2nc3ccccc3nc12
-3.5% | c1ccc(Nc2nc(-c3ccccc3)c(-c3ccccc3)s2)cc1

Source: PubChem BioAssay (National Center for Advancing Translational Sciences (NCATS))

Some of the compounds tested; the hit share may differ from the screen's.
